# High-throughput results: PubChem BioAssay, National Center for Advancing Translational Sciences (NCATS)
# VACV mCherry inh – qHTS for Stage-Specific Inhibitors of Vaccinia Orthopoxvirus: mCherry Reporter Primary qHTS; Vaccinia virus mCherry reporter infection, fluorescence; about a quarter of the inactives have no number; Potency, µM (highest dose often 36.5 µM), for the others: at the highest dose activity change, negative = inhibition, actives largely listed as inhibitors; 310,000 tested, 0.63% active; active = well fitted inhibition curve with a large enough effect; inconclusive = small, poorly fitted or top-dose-only effect; inactive = no such curve, though single readings can be large or run the other way; tested in A549 cells; note: nearly all actives have a fitted effect of over 35% in size; inactives centre near -10
# VACV Venus inh – qHTS for Stage-Specific Inhibitors of Vaccinia Orthopoxvirus: Venus Reporter Primary qHTS | Vaccinia virus Venus reporter expression, fluorescence | Potency, µM (doses to about 36.5 µM), for inactives: top-dose activity change, negative = inhibition, hits mostly inhibitors | 330,000 tested, 0.46% active | AID 720580, 2013; active means well fitted inhibition curve with a large enough effect; inconclusive means small, poorly fitted or top-dose-only effect; inactive means no such curve, though single readings can be large or run the other way; tested in A549 cells; note: nearly all actives have a fitted effect of over 30% in size; inactives centre near -10
# * = called active by the depositor; i = inactive; ? = inconclusive; . = no result given; [ ] = remark or other dose. % is set by controls: 0 for no effect and ±100 for the full control effect; potency is the fitted concentration of half-maximal effect. An unsorted share of the library; about 0.88% have a hit in one of these screens.
compound | VACV mCherry inh | VACV Venus inh
COc1cc(NS(=O)(=O)c2ccc3c(c2)OCC(C(=O)N2CCCC2)O3)cc(OC)c1 (centres undefined) | -15% | -21%
O=C(N/N=C/c1ccncc1)c1cc(Br)ccc1OCc1ccccc1 | i | -11%
Cc1ccc(NC(=O)CNCc2ccccn2)cc1S(=O)(=O)N(C)C | -3% | -13%
CCCCN(C)C(=O)c1nc2ccccn2c1CN1CCC[C@H]1CO | -21% | -3%
CCC(=O)Nc1ccccc1-c1nc2ccccc2n(CC(=O)Nc2ccccc2OC)c1=O | -26% | -28%
CO/N=C/NC(=O)N1OC[C@@H]2COc3ccc4ccccc4c3[C@@H]21 | . | -14%
Cc1ccc2c(C(=O)CN3CCCCC3CCO)c(C)[nH]c2c1 (centres undefined) | . | -22%
C[C@@H]1CNC(=O)c2c(C(=O)Nc3cccc(Cl)c3)ncn21 | ? | ?

compound | VACV mCherry inh | VACV Venus inh
COC(=O)c1cccc(NC(=O)c2cccs2)c1C | -12% | -12%
CC(C)(C)[C@H]1C=C(C(=O)Nc2ccccc2)O[C@@H](OCc2ccc(CO)cc2)C1 | i | -15%
COc1ccc(C(=O)C2CCCN(Cc3c(O)cccc3OC)C2)cc1OC (centres undefined) | 0% | 9%
COc1cc(/C=C2\CCCc3c2nc2ccccc2c3C(=O)O)cc(OC)c1O | -10%[7.34 µM] | -6%[7.34 µM]
Cc1ccc(-n2nc3c(N4CCC(C(=O)NC5CCCCC5)CC4)nnc(C)c3c2C)cc1 | -26% | -21%
Cc1nc2c(nnn2Cc2ccccc2)c(=O)[nH]1 | i | -8%
CCCNc1ncnc2nc[nH]c12 | 1% | -11%
CC(=O)OC[C@@H]1CN(Cc2ccccc2)C[C@H](n2cnc3c(Nc4ccccc4)ncnc32)O1 | -14% | -5%

compound | VACV mCherry inh | VACV Venus inh
COc1ccc(S(=O)(=O)N2CCN(Cc3cccs3)CC2)cc1OC | -4% | -10%
Cc1cccc(C(=O)NCc2nc(-c3cccc(NC(=O)c4ccoc4C)c3)oc2C)n1 | -14% | -10%
O=C(O)/C=C/c1ccc(S(=O)(=O)N2CCCCCC2)cc1 | -10% | -18%
COc1ccc(-c2cc(N)n(S(=O)(=O)c3ccc(C)cc3)n2)c(OC)c1 | ? | -13%
COc1ccc2nc(C)cc(SCC(=O)Nc3c(C)cccc3C)c2c1 | -10% | -9%
CN(C)CCCNC(=O)CCc1nc2ccccc2c(=O)[nH]1 | -9%[1.46 µM] | -12%
Cc1c(C(=O)N/N=C/c2ccncc2)nnn1-c1nonc1N | i | -5%
C/C(NC1CCCCC1)=C(/C#N)C(=O)NCCN1CCOCC1 | . | -17%

# Molecules shown so far that have a halogen (two):
compound | VACV mCherry inh | VACV Venus inh
O=C(N/N=C/c1ccncc1)c1cc(Br)ccc1OCc1ccccc1 | i | -11%
C[C@@H]1CNC(=O)c2c(C(=O)Nc3cccc(Cl)c3)ncn21 | ? | ?

# Later entries:
compound | VACV mCherry inh | VACV Venus inh
Fc1cccc(F)c1/C=N/NC(=S)Nc1cccnc1 | -6% | 1%
CCCCC(=O)Nc1cnc(NC(=O)c2ccco2)cc1C | 56%[activator] | 3%
COc1ccc(-c2coc3cc(OC(C)=O)cc(OC(C)=O)c3c2=O)cc1 | -5% | -1%
CCc1ccc2[nH]c(=O)c(CN(CCCN3CCOCC3)C(=O)Nc3ccc(F)cc3)cc2c1 | . | ?
COc1cc(C2C3=C(CCCC3=O)Nc3ccc4ncccc4c32)ccc1O (centres undefined) | ? | ?
COc1ccc(CC(=O)N/N=C(\C)CC(=O)Nc2ccc3c(c2)OCCO3)cc1 | i | -9%
O=C(NCc1ccccc1Cl)c1csc([C@@H]2C[C@H](O)[C@@H](CO)O2)n1 | -6% | 4%
COc1cc(C(=O)Nc2nnc(SC)s2)c([N+](=O)[O-])cc1OC | i | -7%

compound | VACV mCherry inh | VACV Venus inh
Cc1ccc2nc(CN3CCN(S(=O)(=O)c4ccc(C(C)C)cc4)CC3)oc2c1 | -29% | -25%
O=C1CC(Sc2cccs2)C(=O)N1c1ccccc1 (centres undefined) | i[7.34 µM] | -8%[7.34 µM]
COc1ccccc1NC(=S)N(Cc1ccco1)Cc1cc2cc(C)ccc2[nH]c1=O | ? | ?
COC(=O)c1ccc(Oc2nc3c(c(=O)n(C)c(=O)n3C)n2Cc2ccc(Cl)c(Cl)c2)cc1 | -7% | 5%
CCc1ccc2[nH]c(O)c(N=Nc3nc(-c4ccccc4)cs3)c2c1 | ? | -28%
COc1ccc(C)cc1NC(=O)CN(C)C1CCCCC1 | -2% | -6%
Clc1ccc(-c2noc(CN(Cc3ccccn3)CC3CCCO3)n2)cc1 (centres undefined) | ? | ?
COC(=O)[C@@]1(Sc2ccccc2)CC(=O)N[C@@H]1c1ccccc1 | 23% | 8%

compound | VACV mCherry inh | VACV Venus inh
O=C1CC(N2CCN(C(c3ccccc3)c3ccccc3)CC2)C(=O)N1 (centres undefined) | i | -10%
COc1cc(OC)c2c(-c3cccc(-c4cccc(N)c4)c3)cc(=O)oc2c1 | ? | 13µM*
N#Cc1ccc(C(c2nnnn2CCc2ccccc2)N2CCCCCC2)cc1 (centres undefined) | -1% | -12%
Cc1ccc(-n2c(=O)c3c(c4cc(C)ccc4n3C)n(Cc3ccc(F)cc3)c2=O)cc1 | -16% | -9%
COc1ccc(OC)c(NS(=O)(=O)c2ccc3[nH]c4c(c3c2)CCCCC4)c1 | -22% | -11%
O=C(CSc1nncs1)NCCNC(=O)CSc1nncs1 | -9% | 2%
CCCN1CCN(S(=O)(=O)c2cn(C)nc2C)CC1 | i | 6%
Cn1ccnc1SCC(=O)Nc1ccc2c(c1)COC2=O | . | -19%

compound | VACV mCherry inh | VACV Venus inh
CC[C@H](C)[C@H](NC(=O)OCc1ccccc1)C(=O)OCC(=O)Nc1ccc(N2CCOCC2)cc1 | -6% | -2%
O=C1Nc2c(Br)cccc2C1=O | -19% | -3%
c1ccc(CNc2nc(NCc3cccs3)nc3ccsc23)cc1 | i | -9%
O=C(NCCC1=CCCCC1)c1cc(S(=O)(=O)N2CCOCC2)ccc1Cl | -4% | -5%
O=C(COC(=O)c1ccc([N+](=O)[O-])o1)NC1CCS(=O)(=O)C1 (centres undefined) | -12% | 3%
OC(c1cccnc1)c1ccc2c(c1)CN(Cc1cn(-c3ccccc3)nc1-c1ccccc1)CCO2 (centres undefined) | -13% | 4%
Cc1ccccc1OC(=O)Cn1c(C(F)(F)F)nc2ccccc21 | -11% | -7%
COc1ccc(CCN(C)C(=O)COC(=O)/C=C/c2ccc(C)o2)cc1OC | -14% | -12%

# Single values from the results shown.
# COc1ccc(CCN(C)C(=O)COC(=O)/C=C/c2ccc(C)o2)cc1OC | VACV Venus inh: -12%
# CC[C@H](C)[C@H](NC(=O)OCc1ccccc1)C(=O)OCC(=O)Nc1ccc(N2CCOCC2)cc1 | VACV Venus inh: -2%
# OC(c1cccnc1)c1ccc2c(c1)CN(Cc1cn(-c3ccccc3)nc1-c1ccccc1)CCO2 (centres undefined) | VACV mCherry inh: -13%
# c1ccc(CNc2nc(NCc3cccs3)nc3ccsc23)cc1 | VACV Venus inh: -9%

# The main list resumes, repeating the two entries before the break.
compound | VACV mCherry inh | VACV Venus inh
Cc1ccccc1OC(=O)Cn1c(C(F)(F)F)nc2ccccc21 | -11% | -7%
COc1ccc(CCN(C)C(=O)COC(=O)/C=C/c2ccc(C)o2)cc1OC | -14% | -12%
COc1ccccc1-n1ncc2c(=O)[nH]c(SCC(=O)Nc3cccc(F)c3)nc21 | -8% | -6%
CCCCCC1CCC(C(=O)N2CCOCC2)CC1 (centres undefined) | i | -13%
COc1cccc(/C=N/NC(=O)c2ccc(COc3ccc(Cl)cc3Cl)o2)c1 | . | -2%
Cc1ccc(C(=O)NCc2ccc(Cl)c(Cl)c2)o1 | -16% | -14%
O=C(C1CCN(S(=O)(=O)c2cccs2)CC1)N1CCN(c2ccccc2F)CC1 | -10% | -9%
Nc1ccccc1-n1cccc1 | -21% | 25%
N/C(=N\OC(=O)CCC(=O)O)c1ncc(C(F)(F)F)cc1Cl | 4% | 16%
OCC1(CCc2ccccc2)CCN(Cc2cnc(N3CCCC3)s2)CC1 | -10% | -27%

compound | VACV mCherry inh | VACV Venus inh
O=C(CCCN1C(=O)c2ccccc2C1=O)N1CCOCC1 | -5% | -9%
Cc1ccc(S(=O)(=O)N2CCC(=O)N(CCOC(=O)Nc3ccc(C)c(C)c3)CC2)cc1 | i | -25%
COc1ccc(NC(=O)C[C@H]2C(=O)N(Cc3ccccc3)C[C@@H]2C)cc1 | -8% | -2%
O=S(=O)(c1ccccc1)N1CCN(c2nc3ccccc3s2)CC1 | -4% | -15%
CC1(C)CC(NC(=O)Nc2ccc([N+](=O)[O-])cc2)CC(C)(C)N1 | -14% | -19%
Cc1ccc(C(=O)CC(SCC(=O)O)c2ccc([N+](=O)[O-])cc2)cc1 (centres undefined) | i | -8%
Cc1ccc(S(=O)(=O)NC(CC(=O)NCc2ccco2)c2ccco2)cc1 (centres undefined) | . | -8%
Brc1cc(Br)c[n+](CCc2ccccc2)c1 | 0% | -9%

compound | VACV mCherry inh | VACV Venus inh
CCCCCCCCCOc1ccc2[nH]cc(CCN)c2c1 | -19% | ?
O=C(NCc1ccccc1)NC1(C(=O)N2CCN(c3ncccn3)CC2)CCCCC1 | 1% | -3%
COCCNC(=O)/C(C#N)=C/c1ccc2c(c1)OCO2 | i | -12%
CC(C)CNC(=O)C1CCN(S(=O)(=O)c2ccc(-n3cnnn3)cc2)CC1 | -14% | -1%
N#Cc1cc(Cl)c(NCC2CCCO2)cc1C#N (centres undefined) | -9% | -11%
Cc1ccc(NC(=O)CCC(=O)NNC(=O)Cc2ccccc2)cc1C | i | -1%
CCCCC12CN3CC(C)(CN(C1)C3c1ccccn1)C2=O (centres undefined) | 3% | 8%
Cc1cccnc1 | i | -6%

compound | VACV mCherry inh | VACV Venus inh
CCOC(=O)C(CCC(C)=O)C(=O)c1ccccc1 (centres undefined) | i | -6%
CN1OC2C(=O)N(c3ccccc3)C(=O)C2C1c1ccc(F)cc1 (centres undefined) | 0% | -20%
Cc1ccc(N2CC(C(=O)O)CC2=O)cc1 (centres undefined) | -14% | 7%
CCOC(=O)c1ccc(C(=O)OCC)nc1 | -15% | -6%
Cc1cccc(Nc2nc(NCc3ccco3)c3ccccc3n2)c1 | ? | 13µM*
O=C(NCc1ccccc1Cl)[C@H]1CCCN1C(=O)[C@H]1CCCN1 | -2% | 0%
Clc1ccc(CCNC(c2ccc(Cl)cc2)c2nnc(-c3ccccc3)o2)cc1 (centres undefined) | -11% | 3%
CCOC(=O)C(=CNc1cscc1S(=O)(=O)C(C)C)C(=O)OCC | i | -10%

compound | VACV mCherry inh | VACV Venus inh
CC(C)Cc1ccc(S(=O)(=O)N2CCC(c3ccncc3)CC2)cc1 | -25% | -25%
O=C(O)/C=C/c1cn(-c2ccccc2)nc1-c1ccc2c(c1)OCCO2 | i | -10%
O=P(OC1CCCCC1)(OC1CCCCC1)C(Nc1ccccc1)c1cccnc1 (centres undefined) | i | -20%
CCn1c2ccccc2c2nnc(N3CCN(c4cccc(Cl)c4)CC3)nc21 | -15% | -16%
COC(=O)[C@]12CCCCC=C1N(Cc1ccc3c(c1)OCO3)C(=O)[C@H](CC(=O)NCc1cccc(C(F)(F)F)c1)C2 | ? | -15%
O=C(COCc1cc(-c2ccco2)on1)Nc1cccc(O)c1 | -3% | -3%
C=CCc1c(O)nc(SCC(=O)c2ccccc2)[nH]c1=O | -2% | -14%
CC1CCN(C(=O)CN(C2CCCCC2)S(C)(=O)=O)CC1 | -11% | -11%

compound | VACV mCherry inh | VACV Venus inh
Cc1ccc(C)n1-c1nnc(N2CCC(C(=O)NCc3ccc(F)cc3)CC2)s1 | -12% | -13%
Cc1ccc(CSc2nncn2-c2ccccn2)cc1 | -8% | -1%
CC(C)C[C@H]1CNC(=O)C(=O)N1CC1CCN(CCc2ccc(-c3ccccc3)cc2)CC1 | 0% | -18%
O=C(NCc1ccccn1)c1ccc(N2CCCC2=O)cc1 | -3% | 1%
CCN1CCN(c2cc(C)c3cc(NC(=O)c4cc(OC)cc(OC)c4)ccc3n2)CC1 | -29% | -26%
CCCNC(=O)NC(=O)CN1C(=O)NC(C)(c2ccc3ccccc3c2)C1=O (centres undefined) | -18% | -10%
Cc1nc(C(C)N(C)Cc2nc(Cc3ccccc3F)no2)c(C)s1 (centres undefined) | 0% | -7%
CCN(CC(=O)Nc1c(F)cccc1F)C(=O)C1CC(=O)N(CCc2ccccc2)C1 (centres undefined) | -23% | -3%

compound | VACV mCherry inh | VACV Venus inh
COc1cc(CNC(C)(C)C)cc(Br)c1OCc1cccs1 | i | -19%
O=C(NCc1ccccn1)c1cccc(NS(=O)(=O)c2ccccc2)c1 | -5% | 3%
CCN(c1ccc(C)cc1)S(=O)(=O)c1nnc(NC(=O)c2ccco2)s1 | -9% | -10%
COc1cccc(CNc2ccc(C)c(Cl)c2)c1 | ? | -19%
C=CCn1c(C)cc(-c2csc(NCC)n2)c1C | -1% | 19%
COCc1ccc(C(=O)N2CCCC(C(=O)c3ccc(SC)cc3)C2)o1 (centres undefined) | -6% | -22%
COC(=O)c1ccc(CSc2nncn2C)cc1 | -17% | -8%

# 3 of the compounds above, with each value named.
C=CCn1c(C)cc(-c2csc(NCC)n2)c1C
  VACV mCherry inh = -1%	VACV Venus inh = 19%

COc1cccc(CNc2ccc(C)c(Cl)c2)c1
  VACV mCherry inh = ?	VACV Venus inh = -19%

COC(=O)c1ccc(CSc2nncn2C)cc1
  VACV mCherry inh = -17%	VACV Venus inh = -8%
